Bioassay records from PubChem.
KCNQ2 block = KCNQ2 channel blockers in CHO-K1 cells – cell-based, FluxOR thallium flux, B-score, primary screen (AID 2156). hit rate 1.1% among 310,000. O88943. B-score at 10 µM. 20 min; hits give low values; only compounds with negative scores are shown here; some inactives read as strong as hits;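 active = fluorescence ratio B-score at most minus 3 library SDs, with starting brightness B-score within 2 library SDs, cut at about -5.5 in these data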
Target sequence (O88943 whole entry, looked up): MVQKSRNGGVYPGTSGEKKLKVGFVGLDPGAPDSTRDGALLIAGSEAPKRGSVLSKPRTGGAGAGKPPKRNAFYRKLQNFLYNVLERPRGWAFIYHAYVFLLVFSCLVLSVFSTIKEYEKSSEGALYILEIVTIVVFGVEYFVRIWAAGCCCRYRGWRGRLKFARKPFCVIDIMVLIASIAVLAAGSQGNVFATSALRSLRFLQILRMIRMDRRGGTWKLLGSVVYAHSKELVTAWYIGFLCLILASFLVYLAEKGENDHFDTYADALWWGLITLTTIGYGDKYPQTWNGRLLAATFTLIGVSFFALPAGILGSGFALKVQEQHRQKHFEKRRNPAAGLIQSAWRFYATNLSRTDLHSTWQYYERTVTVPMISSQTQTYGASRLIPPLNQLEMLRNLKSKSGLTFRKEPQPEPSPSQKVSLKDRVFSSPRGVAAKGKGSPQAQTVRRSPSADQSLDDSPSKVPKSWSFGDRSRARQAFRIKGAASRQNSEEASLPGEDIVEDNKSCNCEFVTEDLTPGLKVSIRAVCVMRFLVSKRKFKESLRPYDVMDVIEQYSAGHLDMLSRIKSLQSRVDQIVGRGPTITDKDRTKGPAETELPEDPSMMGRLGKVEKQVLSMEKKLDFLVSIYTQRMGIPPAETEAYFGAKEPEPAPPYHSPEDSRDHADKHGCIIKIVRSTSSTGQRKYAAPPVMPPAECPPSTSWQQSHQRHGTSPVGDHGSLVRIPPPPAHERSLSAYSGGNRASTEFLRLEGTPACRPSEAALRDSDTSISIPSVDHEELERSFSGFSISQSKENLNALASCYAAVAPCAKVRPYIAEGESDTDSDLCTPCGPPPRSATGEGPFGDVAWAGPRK
KCNQ2 block baseline = second read-out of KCNQ2 block, no call of its own (marks repeat the call); B-score; measured here: initial fluorescence intensity artifact check;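 brightness before thallium and not channel activity; 0 = typical well and far values either way flag optical interference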
The depositor's hits bear a star; i = inactive. An excerpt; count on the stated rates, not on these rows.

SMILES	KCNQ2 block	KCNQ2 block baseline
CC(C)[C@H](NC(=O)OC(C)(C)C)c1nnc(SCc2cccc(F)c2)o1	i	0.21
CCOC(=O)CCSc1nc(N2CCOCC2)c2c(c1C#N)CC(C)(C)OC2	i	-0.08
Cc1ccc(NC(=O)Cn2cnc3cc([N+](=O)[O-])ccc3c2=O)cc1	i	-0.5
c1ccc(Cn2c(SCCN3CCOCC3)nnc2-c2cccnc2)cc1	i	0.55
CCN1CCN(c2ccc(NC(=O)c3cccc(OCc4ccccc4)c3)cc2)CC1	i	-0.28
CC1SCC(=NOCc2ccccc2)CS1 (stereo unspecified)	i	-0.65
O=C(C1CC(=O)N(C2CCCC2)C1)N1CCN(c2cccc(Cl)c2)CC1 (stereo unspecified)	i	0.32
N#Cc1cccc(OC(=O)c2ccc3c(=O)n4c(nc3c2)CCC4)c1	i	-0.19
CC1=C(C(=O)Nc2ccccc2)C(c2ccc(O)cc2)N2C(=O)CSC2=N1 (stereo unspecified)	i	-0.69
COC(=O)c1ccc2c(=O)sc(N3CCC(C(N)=O)CC3)nc2c1	i	3
Cc1cccc(Cc2nnc(CCC(=O)N(C)Cc3ccncc3C)o2)c1	i	1.5
O=C(NC1CCCCCC1)C1CCN(C(=O)c2cccc(Cl)c2)CC1	i	5
Cc1ccc(NC(=S)Nc2ccc3cn[nH]c3c2)cc1	i	0.9
Cc1ccccc1C(=O)Nc1cccc(NC(=O)c2ccccc2[N+](=O)[O-])c1	i	-0.26
COc1ccc(Cc2nnc(-c3cccc(C)c3)o2)cc1OC	i	-0.06
Cc1ccc(CN2CCCN(Cc3c(F)cccc3Cl)S2(=O)=O)cc1	i	-0.47
Cc1ccc2c(c1)cc(CN(Cc1ccc3c(c1)OCO3)S(=O)(=O)c1ccccc1)c1nnnn12	i	1.3
Cc1oc(-c2cc(F)ccc2F)nc1CN1CCN(C)C(=O)[C@@H]1C	i	0.17
Cc1csc(NC(=O)Cn2cnnn2)n1	i	-1.5
COc1ccc(/C=C(\C#N)C(=O)OCC(=O)NCc2ccco2)cc1	i	0.36
O=C(c1cccc([N+](=O)[O-])c1)N1CCN(Cc2ccc3c(c2)OCO3)CC1	i	-1.4
O=C1CN(C(=O)OCc2ccccc2)c2ccccc2N1	i	-1.2
CC(NC(=O)c1ccccc1Br)C1CC2CCC1C2 (stereo unspecified)	i	1.4
COc1ccc(-c2cc(C(=O)N3CCCCC3)c3ccccc3n2)cc1	i	0.04
Cc1oc(-c2ccccc2Cl)nc1CS(=O)CC(=O)NCc1ccccc1Cl (stereo unspecified)	i	1.1
c1ccc(C2=NNC(c3ccccn3)=NN2)nc1	i	-0.05
CCOC(=O)N/N=C/c1cn(Cc2ccccc2Cl)c2ccccc12	i	0.89
CCC(=O)Oc1ccc2c(C)cc(=O)oc2c1C	i	0.74
Cc1nn(-c2ccccc2)c2nc(-c3ccccc3)cc(C(=O)N3CCOCC3)c12	i	-0.86
Cc1ccc(CCNC(=O)Cc2ccc(NC3=NC4CS(=O)(=O)CC4S3)cc2)cc1 (stereo unspecified)	i	-2.2
CCc1nnc(NS(=O)(=O)c2ccc(NC(=O)c3cccc([N+](=O)[O-])c3)cc2)s1	i	2
CN(C)S(=O)(=O)c1ccc(N2CCCC2)c(C(=O)NNC(=O)COc2ccccc2F)c1	-8.3*	0.01*
CCOC(=O)N1CCN(C(=O)c2cc3n(n2)C(C(F)(F)F)CC(c2ccc4c(c2)OCO4)N3)CC1 (stereo unspecified)	i	-0.32
Cc1ccc(Oc2c(CO)c(-c3ccccc3)nn2C)cc1	i	-0.76
COc1cc([N+](=O)[O-])ccc1NC(=O)CCCOc1cccc(C)c1C	i	-1.8
O=C(Nc1ccc(Cc2ccncc2)cc1)c1ccc(N2CCOCC2)c([N+](=O)[O-])c1	i	1.9
COc1cc(/C=N/Nc2cc(C)nc(NS(=O)(=O)c3ccccc3)n2)ccc1O	i	0.17
Cc1cc(OCCCC(=O)NC2=NCCS2)ccc1Cl	i	0.53
Cc1c(C(=O)Nc2cccc3cccnc23)oc2ccccc12	i	1
CCc1cc2c(=O)n(CC)c(SC(C)C(=O)Nc3c(C)n(C)n(-c4ccccc4)c3=O)nc2s1 (stereo unspecified)	i	-1.3
CCCN1C(=O)c2ccc(C(=O)Nc3cc(C)ccc3O)cc2C1=O	i	-1.1
CCN(CC(=O)Nc1cc(Cl)ccc1C)C(=O)CN1C(=O)NC2(CCCC2)C1=O	i	-1.1
Cc1ccc(S(=O)(=O)NCC(=O)OC(C)C(=O)c2ccccc2)cc1 (stereo unspecified)	i	-0.03
Fc1ccc(CN2CCC(Cc3ccccc3)CC2)cc1F	i	-0.11
CCn1c(Cc2c(C)[nH]c3ccccc23)nnc1SCC(=O)NCc1ccccc1	i	0.71
CC1CC(C)CN(S(=O)(=O)c2cc3c(cc2Cl)NC(=O)CO3)C1 (stereo unspecified)	i	0.99
O=C(NC1CCCC1)C1CCN(C(=O)c2ccccc2Cl)CC1	i	1.5
CN(Cc1ccccc1F)C(=O)c1ccc(Oc2ccccc2)cc1	i	0.46
O=C(CCCCCn1c(=S)[nH]c2cc3c(cc2c1=O)OCO3)N1CCN(C(=O)c2ccco2)CC1	i	-0.14
COc1ccc(C(=O)NCCn2cc(SCC(=O)NCC3CCCO3)c3ccccc32)cc1 (stereo unspecified)	i	-0.67
Cc1ccccc1C(=O)c1c[nH]c(C(=O)N=CN(C)C)c1	i	1.8
CC(C)CNC(=O)C(=O)N/N=C/c1cccs1	i	1.4
CO/N=C/C(C#N)=C/c1ccc(OC)cc1	i	1.1
COc1ccc(NS(=O)(=O)c2cc(C(=O)N3CCN(C/C=C/c4ccccc4)CC3)ccc2C)cc1	i	11
CCCSc1nnc2n(-c3ccccc3OC)c(=O)c3c4c(sc3n12)CCC4	i	-0.52
COc1ccc(C(=O)N2CCOCC2)cc1Br	i	0.25
S=c1[nH]nc(-c2ccccn2)n1/N=C/c1ccc(Cl)cc1	i	0.86
C/C(CCC(C)C)=N\NC(=S)Nc1cc(S(=O)(=O)N2CCOCC2)ccc1N1CCOCC1	i	-0.03
COc1ccccc1CCNC(=O)C(=O)NCC1OCCCN1S(=O)(=O)c1ccc(F)cc1C (stereo unspecified)	i	-0.8
Cc1ccc(OCC(=O)N2CCCc3ccccc32)cc1	i	0.42

Next part:
SMILES	KCNQ2 block	KCNQ2 block baseline
Cc1noc(C(=O)N2CCN(c3ccccc3)CC2)c1Cl	i	2
O=S(=O)(NCc1ccccn1)C(F)(F)F	i	-1.9
CCCCOc1ccc(C(=O)N/C(=C/c2cccc([N+](=O)[O-])c2)C(=O)O)cc1	i	1.4
Cc1cc(C)n2nc(CNS(=O)(=O)c3ccc(CC(C)C)cc3)nc2n1	i	0.52
Cn1c(N)c(Sc2ccc(F)cc2)c(=O)n(C)c1=O	i	-1.1
COc1ccc(S(=O)(=O)/N=C2\C=C(NS(=O)(=O)c3ccccc3)C(=O)c3ccccc32)cc1	i	-2.8
Cc1sc(=NC(=O)c2ccco2)n(C)c1-c1ccc(Cl)cc1	i	-0.94
Cc1nn(-c2ccccc2)c(Cl)c1C(=O)NC1CCCCC1	i	0.32
COc1cc(Cl)cc(C#N)c1OCC(=O)O	i	2
Cc1cc(C(=O)NCC(=O)OC(C(=O)Nc2cc(C(F)(F)F)ccc2Cl)c2ccccc2)ccc1[N+](=O)[O-] (stereo unspecified)	-5.8*	-0.35*
O=C(O)C1C2CCC(O2)C1C(=O)Nc1cccc(F)c1 (stereo unspecified)	i	-0.4
CCN(CC)c1ccc(/C=N/Nc2nc3ccccc3[nH]2)cc1	i	-0.71
CCc1ccccc1S(=O)(=O)Cc1ccc(C(=O)NCCc2ccccc2)o1	i	-0.71
COCCNC(=O)CCCn1c(=O)c2cc(OC)c(OC)cc2n(CC(=O)c2ccc(Cl)cc2)c1=O	i	0.23
N/C(=N\OC(=O)c1ccc(Cl)cc1Cl)c1ccc(Cl)cc1	i	-0.58
Cc1onc(-c2ccccc2Cl)c1C(=O)NC(=S)NCc1cccnc1	i	0.57
COc1cc(NC(=S)NC2CC(C)(C)NC(C)(C)C2)cc(OC)c1	i	-0.03
CCC(=O)N1CCN(c2ccc(Cl)cc2NC(=O)c2ccc(Br)o2)CC1	i	-1.5
CCOC(=O)C(=O)Nc1nc(-c2ccc3c(c2)CCN3C(=O)C2CC2)c(C)s1	i	2.4
COc1cc(O)c2c(c1)OC(c1ccc(O)cc1)CC2=O (stereo unspecified)	i	1.1
CCOc1cc(C(=S)N2CCOCC2)cc(Br)c1OS(=O)(=O)c1ccccc1	i	-2.3
Cc1cc(C)n(-c2cc(N3CCN(S(=O)(=O)c4ccc5ccccc5c4)CC3)ccc2[N+](=O)[O-])n1	i	-0.58
OC(c1cc(C(F)(F)F)nc2c(Cl)cc(Cl)cc12)C1CCCCN1 (stereo unspecified)	i	-1.7
CS(=O)(=O)Nc1ccccc1C(=O)c1ccccc1	i	-0.96
Cc1nn2c(NCC(C)C)c3c(nc2c1-c1ccccc1)CCC3	i	-0.49
O=C(N/N=C/c1ccc(O)cc1O)c1ccncc1	i	-0.06
CCOC(=O)Cn1nnnc1CN(Cc1ccc(OC)cc1)Cc1cc2cc(C)ccc2[nH]c1=O	i	0.64
N=C1C(c2nc(-c3ccc(F)cc3)cs2)=C(O)CN1CCCN1CCOCC1	i	-0.36
COc1cc(C(=O)Nc2cc(-c3ccccc3)[nH]n2)cc(OC)c1OC	-6.6*	-0.02*
CC(C)(C)C(=O)NC(=S)Nc1cc(C(F)(F)F)ccc1N1CCOCC1	i	-1.5

Another view of part of the listing above.
OC(c1cc(C(F)(F)F)nc2c(Cl)cc(Cl)cc12)C1CCCCN1 (stereo unspecified)
  KCNQ2 block = i; KCNQ2 block baseline = -1.7
CS(=O)(=O)Nc1ccccc1C(=O)c1ccccc1
  KCNQ2 block = i; KCNQ2 block baseline = -0.96
Cc1nn2c(NCC(C)C)c3c(nc2c1-c1ccccc1)CCC3
  KCNQ2 block = i; KCNQ2 block baseline = -0.49
O=C(N/N=C/c1ccc(O)cc1O)c1ccncc1
  KCNQ2 block = i; KCNQ2 block baseline = -0.06

New compounds follow.
SMILES	KCNQ2 block	KCNQ2 block baseline
CCOC(=O)CSc1nc2sc3c(c2c(=O)n1-c1ccccc1)CCN(C(C)C)C3	i	0.57
OC(C#CCN1CCOCC1)c1cccs1 (stereo unspecified)	i	3
Cc1ccc(CC2SC(N=C(N)N)=NC2=O)cc1 (stereo unspecified)	i	1.7
CC(C)n1nc(Cc2cccc3ccccc23)c(C#N)c1N	i	2.2
CC(C)(C)OC(=O)N1CCC(CC2CC(c3cccc(Br)c3)=NO2)(C(=O)O)CC1 (stereo unspecified)	i	1
COc1ccc(-c2noc(-c3cccc(Cl)c3)n2)cc1OC	i	-0.17
COCCNC(=S)N(C)C1(c2ccccc2Cl)CCCCC1=O (stereo unspecified)	i	-0.94
COc1ccc(C(=O)Oc2cc(C)c(CN3CCOCC3)cc2C)cc1OC	i	0.25
O=C(CCCCCCCC(=O)NCC1CCCO1)NCC1CCCO1 (stereo unspecified)	i	1.1
C=CCn1c2ccccc2c(=O)c2cc(C#CC3(O)CCCCC3)ccc21	i	1.1
Cc1ccccc1OCCCCc1c(C)n[nH]c1C	i	-0.49
CCN(C(=O)c1cc2cccc(OC)c2oc1=O)c1ccccc1	i	0.93
CCN(CC)CC(=O)Nc1sc(C)cc1C(=O)c1ccccc1	i	1.8
COc1cccc(CNS(=O)(=O)c2c(C)[nH]c(C)c2C(=O)N2CCCCC2)c1	i	0.6
Cc1ccc(C)c(N2CCN(S(=O)(=O)c3c(C)[nH]c(C)c3C(=O)N3CCCCC3)CC2)c1	-6.7*	-0.86*
CCCc1nnc(SCC(=O)N2CCCC2)n1CC1CCCO1 (stereo unspecified)	i	0.65
O=C(CCC(=O)Nc1ccccc1)NNC(=O)c1cccs1	i	0.33
Cc1cccc(OCC(=O)Nc2ncn[nH]2)c1C	i	-0.42
Cc1ncc(CO)c2cc(-c3nnc(Nc4ccc5c(c4)OCO5)s3)c(=O)oc12	i	1.6
COc1cc2c(cc1OC)C(=O)N(C)CC2	i	0.06
O=C(O)C1CCCN1C(=O)Nc1ccccc1 (stereo unspecified)	i	-0.24
O=C(N/N=C/c1ccc(N2CCOCC2)s1)c1ccccc1Cl	i	0.36
COCCSc1nnc(NC(=O)C2CC(=O)N(c3ccc(C)cc3)C2)s1 (stereo unspecified)	i	1.6
Cc1nnn(C23CC4CC(CC(CC(=O)Nc5cccc(F)c5)(C4)C2)C3)n1	i	-1.6
CCC(CC)COC(=O)C(C#N)c1nc2ccccc2nc1N1CCOCC1 (stereo unspecified)	i	-1.7
N#Cc1c(Nc2ccc(F)cc2)sc(C(=O)c2ccccc2)c1N	i	0.36
CCOCCCNC(=O)c1ccc(N2CCCC2)c(NS(=O)(=O)c2ccc(C)cc2)c1	i	0.19
CCC(CC)c1nnc(NC(=O)c2ccco2)s1	i	-0.44

One compound at a time, as listed above. Screens in order: KCNQ2 block, KCNQ2 block baseline
Cn1c(N)c(Sc2ccc(F)cc2)c(=O)n(C)c1=O is listed with i, -1.1
C/C(CCC(C)C)=N\NC(=S)Nc1cc(S(=O)(=O)N2CCOCC2)ccc1N1CCOCC1 is listed with i, -0.03
Cc1cccc(OCC(=O)Nc2ncn[nH]2)c1C is listed with i, -0.42
COc1ccc(C(=O)N2CCOCC2)cc1Br is listed with i, 0.25
COc1cc2c(cc1OC)C(=O)N(C)CC2 is listed with i, 0.06

Some of these compounds in order of the KCNQ2 block value, lowest first:
SMILES	KCNQ2 block	KCNQ2 block baseline
CN(C)S(=O)(=O)c1ccc(N2CCCC2)c(C(=O)NNC(=O)COc2ccccc2F)c1	-8.3*	0.01*
Cc1ccc(C)c(N2CCN(S(=O)(=O)c3c(C)[nH]c(C)c3C(=O)N3CCCCC3)CC2)c1	-6.7*	-0.86*
COc1cc(C(=O)Nc2cc(-c3ccccc3)[nH]n2)cc(OC)c1OC	-6.6*	-0.02*
Cc1cc(C(=O)NCC(=O)OC(C(=O)Nc2cc(C(F)(F)F)ccc2Cl)c2ccccc2)ccc1[N+](=O)[O-] (stereo unspecified)	-5.8*	-0.35*
